From PubChem
RGS16-Gao HTS: modulators of RGS16 binding to Galphao, primary screen, biochemical, human proteins, multiplexed bead flow cytometry. bead-based flow cytometry RGS16-Galphao binding, fluorescence; actives lie on both sides. binding response (% of control), % at 10 µM. AID 1441, 2008. actives 0.38% (n = 220,000);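 active means below 25% or above 175%, edge rows of some plates excepted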;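 further: Galphao activated by GDP with aluminum fluoride before binding; 100% = wells without compound and 0% = beads without RGS; some results beyond the cut were filed as inactive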
Target sequence (O15492 whole entry, looked up): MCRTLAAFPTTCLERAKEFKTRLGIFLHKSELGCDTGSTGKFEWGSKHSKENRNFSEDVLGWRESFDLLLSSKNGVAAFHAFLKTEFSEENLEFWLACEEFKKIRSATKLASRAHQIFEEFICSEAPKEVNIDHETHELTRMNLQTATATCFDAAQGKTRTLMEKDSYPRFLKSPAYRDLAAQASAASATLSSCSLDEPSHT
Target sequence (P09471 whole entry, looked up): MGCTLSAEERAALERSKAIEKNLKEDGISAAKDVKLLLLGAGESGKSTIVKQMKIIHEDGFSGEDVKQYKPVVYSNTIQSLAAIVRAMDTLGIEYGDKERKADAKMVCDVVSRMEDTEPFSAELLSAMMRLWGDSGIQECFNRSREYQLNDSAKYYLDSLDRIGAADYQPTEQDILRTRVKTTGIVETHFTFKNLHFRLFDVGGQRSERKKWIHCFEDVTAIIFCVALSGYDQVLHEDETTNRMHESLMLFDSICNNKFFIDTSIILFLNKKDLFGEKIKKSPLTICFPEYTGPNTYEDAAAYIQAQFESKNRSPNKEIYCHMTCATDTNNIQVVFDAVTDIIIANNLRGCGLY
HSV augment: enhancers of HSV replication in host cells, fold increase, host cell viability. HSV replication augmentation in cells. actives 0.005% (n = 220,000). maximum fold increase;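 active means peak rise of 1.5-fold or more in the series; tested in PC3 cells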;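 further: first round at 10 µM; read as green reporter fluorescence; hits show the peak of a series up to 25 µM; 1 = signal of infected wells without compound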
PKD1 inh: inhibitors of human PKD1 kinase, biochemical, fluorescence polarization; Serine/threonine-protein kinase D1 (Homo sapiens), Q15139; PKD1 kinase fluorescence polarization assay; inhibition, %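 (about 10 µM by stock and volumes)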; actives 0.056% (n = 200,000); AID 797, 2007;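 active means inhibition of 50% or more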;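 further: controls were vehicle for no effect and a reference inhibitor for full effect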
INS promoter inh: inhibitors of insulin promoter-driven GFP, primary screen, imaging, TRM-6 cells (human fetal islet line), eGFP reporter, cell count | reporter expression induced with tamoxifen | inhibition, % at 2 µM | actives 0.9% (n = 130,000);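 active means inhibition above the mean plus 3 SD, with well images judged a real hit on visual review, cut at about 60% in these data, passing the limit was not always enough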
GALR2 agonist: GALR2 receptor agonists, primary screen, cell-based; actives 0.48% (n = 140,000); Galanin receptor type 2 (Homo sapiens), O43603; GALR2-expressing cells, agonist activation read-out; activation, %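 (tested at 5 µM)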;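 active means above mean plus 3 SD of all compounds, about 5% in these data, not always enough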;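 further: 0% = vehicle buffer wells and 100% = reference agonist at full effect; tested in CHO reporter cells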
Target sequence (O43603 whole entry, looked up): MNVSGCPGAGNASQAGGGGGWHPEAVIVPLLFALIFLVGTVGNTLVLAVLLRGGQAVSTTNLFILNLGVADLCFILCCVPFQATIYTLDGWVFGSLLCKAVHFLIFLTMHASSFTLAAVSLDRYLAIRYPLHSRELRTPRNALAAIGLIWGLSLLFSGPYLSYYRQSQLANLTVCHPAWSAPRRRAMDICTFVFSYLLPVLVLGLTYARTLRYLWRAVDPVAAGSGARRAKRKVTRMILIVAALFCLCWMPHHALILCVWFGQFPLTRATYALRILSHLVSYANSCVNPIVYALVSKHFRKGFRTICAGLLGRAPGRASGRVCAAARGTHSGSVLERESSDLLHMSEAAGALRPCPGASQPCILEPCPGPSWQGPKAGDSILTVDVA
INS promoter inh cell count: also measured in INS promoter inh; calls as there; normalized cell count, %; measured here: cell count, toxicity; reference of the scale not given here;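 cells exposed to compound for 48 h; stained nuclei by imaging scaled within each plate; lower means fewer cells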
HSV augment primary fold: also measured in HSV augment; calls as there; fold increase; compound at 10 µM; measured here: primary screen fold increase 10 uM; tested in PC3 cells;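 GFP signal in the first replicate; 1 = infected wells without compound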
An asterisk follows results filed as active; i = inactive; / = no result given. Rows were taken by chance; about 1.3% have a hit in one of these screens.

Every second line gives: RGS16-Gao HTS	HSV augment	HSV augment primary fold	PKD1 inh	INS promoter inh	INS promoter inh cell count	GALR2 agonist
COC(=O)c1cc(NC(=O)c2cccc(C(F)(F)F)c2)c(=O)oc1C/C=N/OCc1cccc(Cl)c1Cl
→ 103.2	i	1.01	-5.7	-16.1	137.1	-1.9
O=C(N/N=C/c1ccc([N+](=O)[O-])cc1)c1[nH]ncc1Br
→ 102.5	i	0.95	-0.1	/	/	/
COc1ccc(/C=C/c2ccncc2)cc1
→ 102.5	i	0.92	-10.0	7.7	125.7	-1.0
Cc1ccc(S(=O)(=O)Nc2cc(C(=O)Nc3cc(C)cc(C)c3)ccc2Cl)cc1
→ 91.4	i	1	-0.3	20.0	77.6	-1.4
CC(NC(=O)CSc1nnc(COc2ccccc2)o1)c1ccccc1 (centres undefined)
→ 102.1	i	0.993	-4.9	17.6	51.3	0.0
COC(=O)c1cnc(Oc2ccc(NC(=O)NC(=O)c3ccccc3Cl)cc2)cc1C(F)(F)F
→ 101.4	i	0.87	/	/	/	/
CSc1ccc(S(=O)(=O)Nc2ccc3c(c2)NC(=O)CC3)cc1
→ 104.8	i	1.01	0.8	9.1	70.8	/
CCOc1ccccc1NC(=O)N1CCC(c2nc3ccc(C)cc3[nH]2)CC1
→ 110.5	i	1.06	-8.1	-38.7	133.3	-1.3
CCCN1CCN(C(c2cc3cc(OCC)ccc3[nH]c2=O)c2nnnn2C2CCCCC2)CC1 (centres undefined)
→ 97.2	i	0.99	-4.3	0.0	127.1	1.3
CC(C)(C)NC(=O)NC(=O)COC(=O)CCC1CCCCC1
→ 100.8	i	0.91	0.6	-17.4	105.8	-0.8
CCC(=Nc1ccccc1O)C1=C(O)CC(c2ccccc2)CC1=O (centres undefined)
→ 123.3	i	0.77	/	/	/	/
CN(Cc1cccc(Cl)c1Cl)C(=O)c1ccc(NC(=O)CC#N)cc1
→ 108.8	/	/	7.1	/	/	-0.7
Fc1ccc(Oc2nc(-c3ccccc3)nnc2C(F)(F)F)cc1
→ 102.2	i	0.96	-2.2	/	/	-1.0
COCCn1c(Cc2ccccc2)nnc1SCc1ccc([N+](=O)[O-])cc1
→ 128.2	i	0.98	2.6	2.7	80.6	-0.2
COc1ccc(-c2nnc(SCC(=O)Nc3ncc(C)s3)n2-c2ccccc2)cc1OC
→ 110.5	i	0.74	-3.1	/	/	1.3
C1=Cc2ccccc2Nc2ccccc21
→ 91.8	i	1.05	/	/	/	/
CN(Cc1c(C(=O)N(C)Cc2ccccc2)nc2ccccn12)CC1Cc2ccccc2O1 (centres undefined)
→ 100.7	i	1.05	4.7	/	/	/
COc1cccc(-n2c(C)nc3c(cnn3-c3ccc(C)cc3)c2=O)c1
→ 99.5	i	0.833	-1.8	-43.2	225.7	-1.4
CCn1c(=O)cc(OCC(=O)NCc2cccnc2)c2ccccc21
→ 101.4	i	0.93	7.0	-14.3	64.1	-0.6
CCOc1ccc(S(=O)(=O)NCCC(=O)N2CCN(c3ccc(OC)cc3)CC2)cc1
→ 105.2	i	1.14	-0.9	-5.3	86.5	/
O=c1[nH]c(=S)[nH]c2sccc12
→ 97.8	i	0.92	-7.5	/	/	/
COCCNC(=O)c1c(N)n(-c2cccc(C)c2)c2nc3ccccc3nc12
→ 103.7	i	0.84	-13.8	/	/	3.5
Cc1[nH]nc2c1C(c1ccsc1)C(C#N)=C(N)O2 (centres undefined)
→ 97.2	i	0.98	-1.6	5.4	135.7	-3.1
O=C(CCCC1=NS(=O)(=O)c2ccccc2N1)N1CCN(c2ccc(Cl)cc2)CC1
→ 96.8	/	/	11.4	-45.0	89.5	-0.3
Fc1ccc(CO/N=C2\CCCc3nonc32)cc1
→ 100.0	i	0.99	-3.1	/	/	/
Cc1cc(C)n(-c2ccc(S(=O)(=O)N3CCCC3)cc2[N+](=O)[O-])n1
→ 94.9	i	1.13	/	/	/	/
CCn1c(SCC(=O)N2CCN(S(=O)(=O)c3ccccc3)CC2)nnc1-c1cccs1
→ 99.8	i	1.1	2.7	-26.7	131.6	-3.4
O=C(Nc1ccccc1SCC1CSc2nc3ccccc3c(=O)n21)c1cccc(Cl)c1 (centres undefined)
→ 99.3	i	0.66	4.9	-83.3	124.4	-0.3
Cn1c(=O)cc(OCCCC(=O)NCc2ccc(F)cc2Cl)c2ccccc21
→ 104.0	i	0.9	-1.8	-13.3	94.4	/
COc1ccc(OC)c(NC(=O)CC2SC(=N)N(c3ccccc3)C2=O)c1 (centres undefined)
→ 110.1	i	0.9	3.0	64.3	85.2	/

The closing 4 entries of the section above lead into the next:
Every second line gives: RGS16-Gao HTS	HSV augment	HSV augment primary fold	PKD1 inh	INS promoter inh	INS promoter inh cell count	GALR2 agonist
CCn1c(SCC(=O)N2CCN(S(=O)(=O)c3ccccc3)CC2)nnc1-c1cccs1
→ 99.8	i	1.1	2.7	-26.7	131.6	-3.4
O=C(Nc1ccccc1SCC1CSc2nc3ccccc3c(=O)n21)c1cccc(Cl)c1 (centres undefined)
→ 99.3	i	0.66	4.9	-83.3	124.4	-0.3
Cn1c(=O)cc(OCCCC(=O)NCc2ccc(F)cc2Cl)c2ccccc21
→ 104.0	i	0.9	-1.8	-13.3	94.4	/
COc1ccc(OC)c(NC(=O)CC2SC(=N)N(c3ccccc3)C2=O)c1 (centres undefined)
→ 110.1	i	0.9	3.0	64.3	85.2	/
O=C(OC1CCOC1=O)c1ccc(Cl)c(S(=O)(=O)N2CCCCC2)c1 (centres undefined)
→ 100.6	i	0.93	-1.1	/	/	/
NC/C(=N\O)c1ccc(Cl)cc1Cl
→ 93.2	i	1.09	22.4	46.7	76.1	-1.4
C=CCc1cccc(/C=N/NC(=O)CCCNc2ccc(C)cc2)c1O
→ 123.2	i	0.94	-7.4	/	/	0.5
COc1ccccc1NC(=O)CCc1c(C)[nH]c(=O)c(C#N)c1C
→ 106.5	i	0.95	-5.4	9.1	129.1	0.3
O=C(OCCC1Oc2cccnc2NC1=O)c1ccc([N+](=O)[O-])cc1 (centres undefined)
→ 96.1	i	0.74	-1.4	/	/	/
O=S(=O)(Nc1nc2ccccc2nc1N1CCc2ccccc2C1)c1ccc(Br)cc1
→ 109.4	i	1.09	-2.1	10.0	87.2	-0.5
Cc1ccsc1C1Nc2ccc3ncccc3c2C2=C1C(=O)CC(C)(C)C2 (centres undefined)
→ 99.9	i	0.87	5.0	-20.0	97.6	-1.0
C#C[C@]1(O)CC[C@H]2[C@@H]3CCC4=C(CCC(=O)C4)[C@H]3CC[C@@]21C
→ 95.9	i	1.01	-18.9	-54.5	102.9	-0.4
Cc1nn(-c2ccc(Cl)cc2)c2sc(C(=O)N3CCN(c4ccccn4)CC3)cc12
→ 85.9	i	0.87	-5.8	-13.2	70.3	0.6
CC(=O)C1=C(c2ccccc2)NC(=O)NC1c1ccccc1OCC(=O)Nc1ccccc1 (centres undefined)
→ 98.4	i	0.86	-2.0	-22.2	169.7	-0.6
O=C(/C=C\c1ccco1)c1ccc(NC(=O)c2ccco2)cc1
→ 98.2	i	1.15	2.8	/	/	/
COC(=O)c1sccc1NC(=O)c1c(C)c(-c2cccc(Cl)c2)nc2ccccc12
→ 102.9	i	0.96	-6.5	/	/	-0.2
CC(=O)Nc1ccc(S(=O)(=O)N2CCC(N(C)CCC(C)C)CC2)cc1
→ 102.4	i	0.977	0.7	53.1	95.0	-0.2
O=c1cc(N2CCCCC2)c(-c2ccccc2)nn1Cc1ccc(Cl)cc1
→ 100.3	i	0.99	-4.6	/	/	-1.5
CCCCC(=O)c1ccc(O)cc1
→ 92.5	i	0.93	-6.2	-16.7	121.0	-1.2

Grouped by structure: the compounds so far containing a cyano group
Every second line gives: RGS16-Gao HTS	HSV augment	HSV augment primary fold	PKD1 inh	INS promoter inh	INS promoter inh cell count	GALR2 agonist
CN(Cc1cccc(Cl)c1Cl)C(=O)c1ccc(NC(=O)CC#N)cc1
→ 108.8	/	/	7.1	/	/	-0.7
Cc1[nH]nc2c1C(c1ccsc1)C(C#N)=C(N)O2 (centres undefined)
→ 97.2	i	0.98	-1.6	5.4	135.7	-3.1
COc1ccccc1NC(=O)CCc1c(C)[nH]c(=O)c(C#N)c1C
→ 106.5	i	0.95	-5.4	9.1	129.1	0.3

The list goes on.
Every second line gives: RGS16-Gao HTS	HSV augment	HSV augment primary fold	PKD1 inh	INS promoter inh	INS promoter inh cell count	GALR2 agonist
CC(C)NC(=O)CCCn1c(=S)[nH]c2cc3c(cc2c1=O)OCO3
→ 93.2	i	0.8	5.3	-60.0	135.2	-3.6
COc1ccc(C(=O)Nc2ccc(N3CCC(C)CC3)cc2)cc1Br
→ 96.6	i	0.94	-3.9	/	/	/
CCCCCCCC(=O)NNC(=O)c1c(O)c2ccccc2n(CC)c1=O
→ 100.7	i	1.05	-5.7	11.1	196.4	/
COc1ccc(-c2oc3ncn(Cc4ccco4)c(=N)c3c2-c2ccc(OC)cc2)cc1
→ 101.9	i	0.63	3.3	51.4	58.1	0.8
CCn1ncc([N+](=O)[O-])c1C(=O)Nc1ccc(C(=O)N2CCCCC2)cc1
→ 102.0	i	0.99	8.0	-7.7	117.2	-1.1
Cn1cc([N+](=O)[O-])c(C(=O)N/N=C\c2c[nH]c3ccccc23)n1
→ 99.4	i	1.02	-2.9	/	/	/
Cc1nc(CS(=O)(=O)c2ccc(Cl)cc2)cc(Sc2ccccc2Cl)n1
→ 96.7	i	0.79	-14.0	28.6	156.7	-0.8
COc1cnn(-c2ccccc2)c(=O)c1OC
→ 97.2	i	0.9	/	/	/	/
Cn1c(=O)n(C)c2cc(NS(=O)(=O)c3ccc(Br)s3)ccc21
→ 99.8	i	0.91	8.0	0.0	105.3	/
COCC(=O)N(CCc1ccc(OC)cc1)Cc1nc2ccccc2c(=O)[nH]1
→ 113.3	i	1	2.6	/	/	0.2
CCc1nnc(NS(=O)(=O)c2ccc(NC(=S)NC(=O)c3ccc(OC)c(OC)c3)cc2)s1
→ 93.5	i	0.9	-2.2	50.0	85.8	-1.6
COc1ccc(S(=O)(=O)NC(C)C(=O)Nc2ccccc2C(F)(F)F)cc1 (centres undefined)
→ 113.6	i	0.81	-8.6	-29.6	104.4	-3.8
CCOC(=O)c1csc(NC(=O)c2ccc(N3C(=O)CCC3=O)cc2)n1
→ 102.1	i	1	-2.6	/	/	/
CCN(Cc1ccccc1)C(=O)C1CCN(Cc2sccc2C)CC1
→ 111.9	/	/	-7.2	8.3	73.6	-0.3
C/C(=N\N=C(N)N)c1cccc(Cl)c1
→ 97.5	i	0.83	-2.3	-29.4	126.2	/
COc1ccc(CC(NC(C)=O)C(=O)NC2CCN(c3nnnn3-c3ccccc3)CC2)cc1 (centres undefined)
→ 100.4	i	0.83	-4.3	30.3	106.9	-1.2
CC(C)Cn1cc(C(=O)N2CCC(C)CC2)c2c3ccccc3n(C)c2c1=O
→ 101.9	i	0.97	-1.9	0.0	84.8	/
O=C(O)c1cccc(Nc2nc(Nc3ccccc3)nc(N3CCCC3)n2)c1
→ 88.2	i	0.94	-4.7	-33.3	81.8	/
O=C(Nn1cnnc1)c1cc2c(s1)CCCC2
→ 102.4	i	1.07	-4.0	20.8	93.5	-2.0
CC1CN(c2ncnc3c2oc2ccccc23)CC(C)O1 (centres undefined)
→ 97.5	i	0.937	-3.4	-3.0	85.4	1.9
COc1ccc(N(CC(=O)Nc2c(C)n(C)n(-c3ccccc3)c2=O)S(=O)(=O)c2ccc(F)cc2)cc1
→ 85.6	i	1.04	4.1	4.8	121.1	-1.0
CC(C)(C)c1cc(OC(=O)c2ccccc2F)ccc1O
→ 103.0	i	0.93	4.7	/	/	/
CCOC(=O)c1cnc2c(cnn2C)c1NCCCN(C)C
→ 86.8	i	0.95	-3.3	-110.0	91.0	-1.8
O=C(Nc1ccc(Cl)c(Cl)c1)Nc1nnc(-c2ccncc2)s1
→ 158.0	i	0.75	-6.0	/	/	0.4
CC(C)CNC(=O)NC1(C(F)(F)F)Oc2ccccc2O1
→ 98.1	i	0.75	-7.1	-13.3	106.6	/
O=c1c(OC2OC(CO)C(O)C(O)C2O)c(-c2ccc(O)c(O)c2)oc2cc(O)cc(O)c12 (centres undefined)
→ 95.3	i	0.74	25.7	-20.0	94.1	-0.7
CCN(CC)c1ccc(/C=N/NS(=O)(=O)c2ccc(CNC(C)=O)cc2)cc1
→ 97.4	i	0.88	0.0	-20.0	127.2	-0.4
O=C(CSc1nnnn1-c1ccccc1)Nc1ccc(N2CCOCC2)c(Cl)c1
→ 108.7	i	1.03	-4.6	-4.5	130.3	-0.7
CCOC(=O)CN1C(=O)C(O)(C2CCc3ccccc3C2=O)c2ccccc21 (centres undefined)
→ 85.4	i	1.05	3.3	9.5	108.9	-1.8
